RGS16-Gao = modulators of RGS16 binding to Galphao, primary screen, biochemical, human proteins, multiplexed bead flow cytometry | bead-based flow cytometry RGS16-Galphao binding, fluorescence; actives lie on both sides | AID 1441, 2008 | binding response (% of control), % at 10 µM | 220,000 tested, 0.38% active | Regulator of G-protein signaling 16 (Homo sapiens) + Guanine nucleotide-binding protein …;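 active = below 25% or above 175%, edge rows of some plates excepted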;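 also: Galphao activated by GDP with aluminum fluoride before binding; 100% = wells without compound and 0% = beads without RGS; some results beyond the cut were filed as inactive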
Target sequence (O15492 whole entry, looked up): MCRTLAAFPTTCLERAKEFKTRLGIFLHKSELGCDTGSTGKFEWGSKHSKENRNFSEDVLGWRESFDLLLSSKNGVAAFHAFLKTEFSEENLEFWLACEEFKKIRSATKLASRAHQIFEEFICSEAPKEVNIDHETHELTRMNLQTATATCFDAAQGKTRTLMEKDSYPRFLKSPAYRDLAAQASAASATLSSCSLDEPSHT
Target sequence (P09471 whole entry, looked up): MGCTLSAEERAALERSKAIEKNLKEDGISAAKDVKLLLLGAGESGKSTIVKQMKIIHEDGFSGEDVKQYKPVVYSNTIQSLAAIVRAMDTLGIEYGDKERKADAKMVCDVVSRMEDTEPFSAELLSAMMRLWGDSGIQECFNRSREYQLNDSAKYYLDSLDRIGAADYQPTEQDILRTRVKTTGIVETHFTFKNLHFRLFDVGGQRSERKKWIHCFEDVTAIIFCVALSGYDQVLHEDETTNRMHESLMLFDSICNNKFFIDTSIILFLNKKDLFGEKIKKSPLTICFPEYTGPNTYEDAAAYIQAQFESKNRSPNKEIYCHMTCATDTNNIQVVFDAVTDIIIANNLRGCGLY
HSV augment = enhancers of HSV replication in host cells, fold increase, host cell viability; HSV replication augmentation in cells; maximum fold increase; 220,000 tested, 0.005% active; AID 1956, 2009;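 active = peak rise of 1.5-fold or more in the series; tested in PC3 cells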;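 also: first round at 10 µM; read as green reporter fluorescence; hits show the peak of a series up to 25 µM; 1 = signal of infected wells without compound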
PKD1 inh = inhibitors of human PKD1 kinase, biochemical, fluorescence polarization; inhibition, %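 (about 10 µM by stock and volumes)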; PKD1 kinase fluorescence polarization assay; AID 797, 2007; 200,000 tested, 0.056% active;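 active = inhibition of 50% or more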;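 also: controls were vehicle for no effect and a reference inhibitor for full effect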
INS promoter inh = inhibitors of insulin promoter-driven GFP, primary screen, imaging, TRM-6 cells (human fetal islet line), eGFP reporter, cell count; reporter expression induced with tamoxifen; inhibition, % at 2 µM; 130,000 tested, 0.9% active; AID 1273, 2008;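 active = inhibition above the mean plus 3 SD, with well images judged a real hit on visual review, cut at about 60% in these data, passing the limit was not always enough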
GALR2 agonist = GALR2 receptor agonists, primary screen, cell-based | Galanin receptor type 2 (Homo sapiens), O43603 | GALR2-expressing cells, agonist activation read-out | activation, %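 (tested at 5 µM)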 | 140,000 tested, 0.48% active;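 active = above mean plus 3 SD of all compounds, about 5% in these data, not always enough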;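 also: 0% = vehicle buffer wells and 100% = reference agonist at full effect; tested in CHO reporter cells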
Target sequence (O43603 whole entry, looked up): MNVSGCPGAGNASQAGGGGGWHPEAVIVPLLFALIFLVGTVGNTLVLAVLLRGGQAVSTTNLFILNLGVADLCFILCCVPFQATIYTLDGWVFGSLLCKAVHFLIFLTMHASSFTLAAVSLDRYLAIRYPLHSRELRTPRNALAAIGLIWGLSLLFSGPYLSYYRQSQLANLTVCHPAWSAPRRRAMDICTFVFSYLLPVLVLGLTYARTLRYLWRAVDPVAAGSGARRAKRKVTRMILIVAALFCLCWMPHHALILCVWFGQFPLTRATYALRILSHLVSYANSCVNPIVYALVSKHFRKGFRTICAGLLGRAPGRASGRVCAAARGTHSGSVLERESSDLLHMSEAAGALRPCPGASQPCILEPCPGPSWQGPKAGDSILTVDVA
INS promoter inh cell count = further read-out of INS promoter inh, marked with its call; normalized cell count, %; measured here: cell count, toxicity; reference of the scale not given here;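 cells exposed to compound for 48 h; stained nuclei by imaging scaled within each plate; lower means fewer cells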
HSV augment primary fold = recorded beside HSV augment, whose call it bears; fold increase; compound at 10 µM; measured here: primary screen fold increase 10 uM; tested in PC3 cells;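 GFP signal in the first replicate; 1 = infected wells without compound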
* marks the source's active call; other numbers are inactive results; i = inactive; / = no result given. The order is random. About 1.2% of those tested had a hit in this group.

SMILES | RGS16-Gao | HSV augment | HSV augment primary fold | PKD1 inh | INS promoter inh | INS promoter inh cell count | GALR2 agonist
CS(=O)(=O)N1Cc2ccccc2CC1C(=O)O (stereo not given) | 113 | i | 1 | 2 | -50 | 52 | /
Cn1c(=O)c2c(nc(CN3CCN(c4ccccc4)CC3)n2Cc2c(F)cccc2Cl)n(C)c1=O | 102 | i | 0.9 | 2 | / | / | 0.3
O=C(OCCN1CCCCC1)c1cc2ccccc2o1 | 102 | i | 0.92 | -3 | 38 | 55 | -0.6
COc1cccc(C(=O)N2CCN(C3CCC(c4ccccc4)CC3)CC2)c1OC (stereo not given) | 100 | i | 0.93 | -2 | / | / | -0.6
COc1ccccc1N(CC(N)=O)S(=O)(=O)c1ccc(C)cc1 | 99 | i | 1.1 | 3 | / | / | -2.4
CCn1c(O)c(/C=C2\C=NN=C2c2ccccc2)sc1=S | 104 | i | 0.88 | / | / | / | /
Cc1noc(C)c1C(=O)NCc1ccccc1 | 102 | i | 1.1 | 0 | -4 | 95 | -1.9
Cn1c(SCC(=O)N/N=C/c2ccc([N+](=O)[O-])s2)nnc1-c1ccccc1 | 105 | i | 0.86 | 2 | -72 | 86 | 1.0
Cc1cccc(-n2ccnc2CN2CCC(CO)(Cc3ccccc3)CC2)c1 | 94 | i | 1 | / | / | / | /
O=C(Cc1c(F)cccc1Cl)c1ccc(O)cc1O | 110 | i | 0.86 | -11 | / | / | -2.5
CCOCCCN(Cc1cc2cc(C)cc(C)c2[nH]c1=O)C(=O)N(CC)CC | 106 | i | 0.92 | -2 | -11 | 98 | -6.3
COc1ccc(/C=C/C(=O)Nc2cc(S(=O)(=O)N3CCOCC3)ccc2N2CCCC2)cc1OC | 101 | i | 0.94 | 0 | / | / | /
CCOC(=O)c1c(-c2ccc(C)o2)csc1NC(=O)CN1CCCCC1 | 98 | i | 0.92 | 5 | / | / | /
O=C(O)/C=C/C(=O)Nc1ccc(Oc2ccc(NC(=O)/C=C/C(=O)O)cc2)cc1 | 97 | i | 1 | -7 | -15 | 121 | -0.1
CN(Cc1ccon1)C(=O)CC1C(=O)NCCN1Cc1cccc(Oc2ccccc2)c1 (stereo not given) | 107 | i | 0.92 | 0 | / | / | /
CN(C(=O)c1ccc(=O)n(Cc2ccc(Cl)cc2)c1)c1ccccc1 | 102 | i | 0.98 | -5 | / | / | /
O=C(CN1CCOCC1)N/N=C/c1ccc(C(=O)O)cc1 | 102 | i | 0.95 | -2 | / | / | /
COc1ccccc1/C=N/NC(=O)CC(=O)NCc1cccnc1 | 100 | i | 1.1 | -2 | -3 | 97 | -0.4
O=C(Nc1c(Cl)cc(Cl)cc1C(=O)NCCN1CCOCC1)c1cccc([N+](=O)[O-])c1 | 101 | i | 1.1 | -1 | 29 | 64 | /
Cc1ccc(N(C)S(=O)(=O)c2cccc(C(=O)Nc3nnc(C4CC4)s3)c2)cc1 | 112 | i | 0.93 | 8 | -7 | 164 | /
CCn1cc(C(=O)OCC(=O)Nc2cccc(Cl)c2Cl)c(=O)c2ccc(C)nc21 | 111 | i | 1 | -6 | 25 | 61 | /
Cc1cc(N2CCC(C)CC2)nc2ccc(N3C(=O)CCC3=O)cc12 | 133 | i | 1 | -4 | -56 | 110 | 1.4
CCNC(=S)N/N=C/c1ccccc1[N+](=O)[O-] | 103 | i | 0.94 | -11 | -7 | 108 | /
CCOc1ccc(NC(=O)c2ccc(NC(=S)NC3CCCCC3)cc2)cc1 | 72 | i | 0.8 | -1 | 15 | 55 | /
O=C(NCc1ccco1)c1nnc(Cc2ccc(Cl)cc2)o1 | 105 | i | 0.6 | -11 | / | / | -1.1
COC(=O)c1cccc(NC(=O)CC2C(=O)NCCN2C(=O)c2ccc(F)cc2F)c1 (stereo not given) | 96 | i | 0.94 | / | / | / | /
COc1cccc(/C=N/NC(N)=S)c1OCc1cccc(Cl)c1 | 107 | i | 0.85 | 0 | -53 | 91 | -2.6
CCOC(=O)N1CCN(c2c(NCCN(C)Cc3ccccc3)c(=O)c2=O)CC1 | 106 | i | 1.1 | -6 | 0 | 121 | -0.9
CSc1nc(-c2ccccc2)nc(C(Cl)Cl)n1 | 104 | i | 0.46 | 0 | / | / | 8.0*
Cc1cccc(OCC(=O)Nc2cc(C)c(C)cc2O)c1 | 101 | i | 1.1 | -10 | -24 | 143 | 0.5

Three compounds out of the list, arranged by molecular weight, lowest first.
SMILES | RGS16-Gao | HSV augment | HSV augment primary fold | PKD1 inh | INS promoter inh | INS promoter inh cell count | GALR2 agonist
CSc1nc(-c2ccccc2)nc(C(Cl)Cl)n1 | 104 | i | 0.46 | 0 | / | / | 8.0*
O=C(NCc1ccco1)c1nnc(Cc2ccc(Cl)cc2)o1 | 105 | i | 0.6 | -11 | / | / | -1.1
CCn1cc(C(=O)OCC(=O)Nc2cccc(Cl)c2Cl)c(=O)c2ccc(C)nc21 | 111 | i | 1 | -6 | 25 | 61 | /

Going on with the list:
SMILES | RGS16-Gao | HSV augment | HSV augment primary fold | PKD1 inh | INS promoter inh | INS promoter inh cell count | GALR2 agonist
COCCN1Cc2cccc(C(=O)Nc3ccc(S(=O)(=O)N4CCOCC4)cc3)c2C1=O | 98 | i | 1.1 | -7 | / | / | /
Fc1ccccc1CSCc1nc2ccccc2[nH]1 | 108 | i | 0.97 | 0 | / | / | /
CC(C)c1ccc(C(=O)CSc2n[nH]c(-c3ccncc3)n2)cc1 | 99 | i | 0.96 | 5 | -100 | 96 | 0.0
CC(C)(C)n1nc2c(c1NC(=O)COc1ccc(Cl)cc1)CSC2 | 100 | i | 0.99 | -6 | -4 | 169 | -1.4
CSc1sc2ccccc2[n+]1CCCS(=O)(=O)[O-] | 100 | i | 1.1 | 3 | -100 | 47 | -1.7
Cc1cc2occ(CC(=O)NCc3cccs3)c2cc1C(C)C | 118 | i | 0.94 | -8 | -47 | 99 | -0.7
CCn1nc(CC(=O)O)c2ccccc2c1=O | 106 | i | 1 | -1 | / | / | /
COc1cc(C(=O)N2CCN(c3ccc([N+](=O)[O-])cc3)CC2)ccc1OCc1c(C)noc1C | 83 | i | 0.88 | -3 | 0 | 103 | 0.3
Cc1cc(C(=O)N/N=C/c2ccccc2Br)no1 | 102 | i | 1.1 | -4 | / | / | -3.8
COc1ccc(Cl)cc1C(=O)NNC(=O)c1cccnc1 | 106 | i | 0.93 | -4 | -21 | 82 | -3.6
Cn1c(CCCCCN)nc2ccccc21 | 100 | i | 1 | -14 | -37 | 84 | -0.5
CN1CCN(S(=O)(=O)c2ccc3[nH]c(=O)oc3c2)CC1 | 104 | i | 0.9 | 1 | 36 | 105 | -1.0
COc1cc(Nc2ccccc2Cl)c([N+](=O)[O-])nc1[N+](=O)[O-] | 101 | i | 0.9 | -5 | -29 | 102 | -0.5
CC(C)(C)n1ncc2c(=O)n(CC(=O)c3ccc(Cl)cc3)cnc21 | 104 | i | 1.1 | -29 | 40 | 95 | -0.4
O=C(NNS(=O)(=O)c1ccc(Br)cc1)C1CCCCC1 | 101 | i | 0.69 | -2 | / | / | /
CCOC(=O)c1ccc(S(=O)(=O)N2CCN(CC3CC=CCC3)CC2)cc1 (stereo not given) | 128 | i | 0.94 | 5 | / | / | -0.2
O=C(CSc1ncc(-c2ccccc2)[nH]1)Nc1cccc(O)c1 | 104 | i | 1 | -5 | -31 | 85 | -2.6
CCOC(=O)c1cc(NC(=O)Nc2ccc(OC)c(OC)c2)c(C)nc1C | 99 | i | 1 | -10 | 50 | 122 | -2.0
CC1CC(C)CN(C(=O)C(C)N(C)CC(=O)Nc2ccccc2Cl)C1 (stereo not given) | 100 | i | 0.98 | 1 | -14 | 93 | /
Cn1c2ccccc2c2c(C(=O)NCCCN3CCCC3=O)cn(C3CCCCC3)c(=O)c21 | 97 | i | 1 | -5 | -19 | 150 | -0.2
C/C=C\C(=O)Nc1cccc(C2=NOC3(C2)C[C@@H](C(N)=O)N(C(=O)CC(c2ccccc2)c2ccccc2)C3)c1 (stereo not given in full) | 100 | i | 0.77 | / | / | / | /
O=C(N/C(=C\c1cccs1)C(=O)N1CCOCC1)c1ccco1 | 98 | i | 1.1 | 3 | / | / | /
Cc1ccc(C(=O)CSc2nc(C)cc(C)c2C(N)=O)cc1 | 236 | i | 1.2 | -1 | / | / | -1.1
COc1ccc(Nc2nc(N)nc(CSc3nncn3C)n2)cc1 | 103 | i | 0.73 | 0 | 77* | 94* | -0.9
Cc1ccc2[nH]cc(C(=O)CN3CCN(C)CC3)c2c1 | 99 | i | 1.1 | -13 | 38 | 110 | -3.6
COc1ccc(N(C(C)=O)S(=O)(=O)c2cccc3cccnc23)cc1 | 110 | i | 0.94 | -5 | -38 | 84 | -0.1
O=C(CCn1nc(-c2ccc(Cl)cc2)ccc1=O)N1CCOCC1 | 98 | i | 0.96 | 5 | 46 | 103 | -1.3
COCCNC(=O)c1cc(-c2ccc(OC)c(OC)c2)on1 | 104 | i | 1 | -7 | 18 | 113 | -2.1
CCN1CCN(C(=O)CSc2cc(=O)n(C)c3ccccc23)CC1 | 107 | i | 1.2 | -10 | / | / | /
Clc1ccc(OCCSc2ncccn2)c(Br)c1 | 102 | i | 0.94 | -8 | / | / | /

The list goes on, overlapping the part above by three compounds.
SMILES | RGS16-Gao | HSV augment | HSV augment primary fold | PKD1 inh | INS promoter inh | INS promoter inh cell count | GALR2 agonist
COCCNC(=O)c1cc(-c2ccc(OC)c(OC)c2)on1 | 104 | i | 1 | -7 | 18 | 113 | -2.1
CCN1CCN(C(=O)CSc2cc(=O)n(C)c3ccccc23)CC1 | 107 | i | 1.2 | -10 | / | / | /
Clc1ccc(OCCSc2ncccn2)c(Br)c1 | 102 | i | 0.94 | -8 | / | / | /
COc1ccc(NS(=O)(=O)c2ccc(N3CC(O)=C(c4ccccc4)C3=N)cc2)cc1 | 101 | i | 0.82 | / | / | / | /
N#C/C=C1/NC(=O)c2ccccc2S1 | 126 | i | 1.1 | -2 | -70 | 81 | -1.8
CCCc1cc(=O)oc2c(CN3CCCC3)c(O)ccc12 | 103 | i | 1 | 5 | / | / | 1.5
CC(=O)c1cccc(NC(=S)NC2CCCCC2)c1 | 100 | i | 1 | -6 | -71 | 144 | -0.5
CCOC(=O)C1=C(CC)Nc2ccccc2N=C1NC(=O)Nc1ccc(Cl)c(Cl)c1 | 106 | i | 0.75 | -3 | / | / | 1.8
Cc1cc(Cl)ccc1OCC(=O)Nc1ccccc1CO | 103 | i | 1 | -4 | -7 | 161 | -1.9
CCOC(=O)C1CCCN(c2oc(-c3ccc(OC)cc3)nc2C#N)C1 (stereo not given) | 137 | i | 0.98 | -3 | 44 | 68 | /
CCOc1ccc(S(=O)(=O)NN)cc1 | 100 | i | 1 | 0 | -3 | 61 | -4.6
S=C(NCc1cccs1)Nc1ccccc1 | 102 | i | 0.86 | 4 | -21 | 99 | 0.0
Cc1c(Cl)cccc1NC(=O)Cn1cc(C(F)(F)F)cc(Cl)c1=O | 107 | i | 0.93 | -4 | 29 | 98 | /
c1ccc(-c2nnc(OCC3CCCO3)c3ccccc23)cc1 (stereo not given) | 105 | i | 0.97 | -2 | -18 | 107 | /
COc1ccc(OCc2cn3c(C)cc(C)nc3n2)cc1 | 109 | i | 0.98 | -5 | / | / | -0.2
Cc1ccc(-c2nc(-c3ccccc3)no2)cc1 | 107 | i | 1 | -13 | 3 | 65 | 0.2
CCN(CC(=O)Nc1ccccc1SC)Cc1nc2ccccc2c(=O)[nH]1 | 102 | i | 0.79 | / | / | / | /
Cc1ccc(CSCCNC(=O)CSCc2ccc([N+](=O)[O-])cc2)cc1 | 70 | i | 1 | 7 | 12 | 143 | -2.4
CCOC(=O)c1nnc(-c2cccs2)nc1NC(C)C | 111 | i | 0.86 | 0 | -73 | 91 | -1.6
CCOC(=O)CNC(=O)CSc1ncnc2c1cnn2-c1ccc(C)cc1 | 91 | i | 0.95 | 0 | 21 | 102 | -1.3
O=C(NCCc1c[nH]c2ccccc12)[C@@H]1C[C@H]1[C@@H](NP(=O)(c1ccccc1)c1ccccc1)c1ccccc1 | 106 | i | 0.76 | -6 | 14 | 37 | -2.5
CCOC(=O)N1CCN(C(=O)CSc2nc3ccccc3c(=O)n2-c2ccccc2)CC1 | 100 | i | 0.88 | -15 | -6 | 101 | -2.1
COc1cc(C2NC(=O)NC(C)=C2C(=O)OC2CCCCC2)cc(Br)c1O (stereo not given) | / | i | 0.94 | -11 | / | / | -0.1
O=C(COc1ccc(Br)cc1)Nc1nc(-c2cccnc2)cs1 | 96 | i | 0.98 | / | / | / | /
